From PubChem
Beta2AR agonist = agonists of human beta-2 adrenergic receptor inducing internalization; Am2.2-beta2AR cells, FAP receptor internalization, flow cytometry; reference of the scale not given here; response, % (concentration not given with the values); 340,000 compounds, 0.43% hits; P07550;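 active = response above a set limit, near 3 SD of response in nonfluorescent compounds, cut at about 42% in these data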;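 note: stock transfer was 100 nL into about 11 µL; a reference agonist was the positive control; negative values mostly stem from fluorescent compounds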
Target sequence (P07550 whole entry, looked up): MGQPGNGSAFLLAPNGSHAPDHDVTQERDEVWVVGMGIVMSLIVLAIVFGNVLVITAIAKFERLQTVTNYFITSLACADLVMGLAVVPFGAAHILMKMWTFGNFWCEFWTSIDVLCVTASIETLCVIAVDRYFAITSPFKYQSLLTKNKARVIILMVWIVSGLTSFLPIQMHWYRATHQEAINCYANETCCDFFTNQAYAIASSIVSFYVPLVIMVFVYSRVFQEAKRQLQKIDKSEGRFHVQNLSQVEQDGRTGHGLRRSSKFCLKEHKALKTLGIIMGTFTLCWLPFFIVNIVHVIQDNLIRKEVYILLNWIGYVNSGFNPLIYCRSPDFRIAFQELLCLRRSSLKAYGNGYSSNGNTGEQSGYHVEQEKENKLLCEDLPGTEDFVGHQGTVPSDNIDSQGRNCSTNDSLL
RanGTP-Impb inh = inhibitors of RanGTP-importin-beta interaction, primary screen, biochemical, FRET, CFP-Ran, YFP-importin-beta, homogeneous. cell-free CFP-Ran/YFP-importin-beta FRET ratio. inhibition, % (concentration not given with the values). 300,000 compounds, 1.1% hits;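 active = most replicates above 15%; inconclusive = exactly half above 15%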;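 note: 0% = DMSO wells and 100% = Ran loaded with GDP instead of GTP; wells of about 40 µL received 100 nL stock; the first replicate is given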
LANA-H2A inh = blocks KSHV LANA binding to histone H2A/H2B. cell-free LANA-H2A/H2B peptide, fluorescence polarization. AID 2629. inhibition, % (no concentration beside the values). Q9QR71. 320,000 compounds, 0.6% hits; in the data active = inhibition mostly above about 10%, no sharp cut-off; inactive = mostly below about 6.7%;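 note: stock transfer was 7.5 nL into about 10 µL; 0% = median of vehicle wells and 100% = median of positive control wells; one replicate is shown; the record names a cut of 25% in any replicate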
Calb FLC = C. albicans growth modulation with fluconazole | C. albicans CaCi-2 (fluconazole-resistant clinical isolate) + fluconazole, Alamar Blue growth, 48 h | 300,000 compounds, 0.57% hits | growth inhibition, % (no concentration beside the values);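 active = most replicates above 75%; inconclusive = exactly half above 75%; inactive = most below 75%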;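 note: all wells also contain fluconazole at 8 µg/ml as a sub-toxic cotreatment; 0% = median of DMSO wells and 100% = median of geldanamycin control wells; wells of about 8 µL received 7.5 nL stock; the first replicate is given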
Bfl-1 A1 inh = inhibitors of the anti-apoptotic protein A1, read as caspase activation | MEF A1-2A-BIM cells, Caspase-Glo 3/7 luminescence, 3 h; percent of clofoctol response, vehicle zero | 330,000 compounds, 0.066% hits | caspase activation, % (test concentration not listed);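 active = over half of replicate activation scores above 10%, or exactly half above 10 with the replicate mean above 10; inconclusive = replicate mean below 10 yet half the replicates above 10; inactive = over half of replicates below 10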;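 note: wells of about 30 µL received 50 nL stock; many hits fall short of the cut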
T cruzi inh = T. cruzi replication inhibition; 300,000 compounds, 1.4% hits; T. cruzi beta-gal in NIH3T3, luminescence, 90 h; AID 1885; inhibition, % (test concentration not listed);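 active = mean inhibition across valid replicates above about 55%, limit read from the data; inconclusive = mean below that limit but half or more replicates reach it; inactive = mean below it, under half of replicates reach it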;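 note: signal also drops with host cell toxicity which is not excluded here; 0% = plate median of DMSO wells and 100% = zero luminescence signal; higher percent means less beta-gal luminescence so fewer parasites; stock transfer was 50 nL into about 50 µL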
Beta apoptosis = blocks beta cell apoptosis. INS-1E cytokine-induced death, ATP luminescence, 48 h; percent of positive-control rescue, neutral wells zero. protection from apoptosis, % (concentration not given with the values). 300,000 compounds, 0.8% hits. AID 435005;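 active = all replicates at 75% or more, or half of them and the mean; inconclusive = half reach 75% but not the mean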;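 note: 0% = cytokine-treated negative control wells and 100% = positive control rescue; higher means more ATP so stronger rescue from cytokine killing; wells of about 40 µL received 100 nL stock; the first replicate is given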
UCH37 DUB inh = human UCH37 deubiquitinating enzyme inhibition; inhibition, % (no concentration beside the values); 330,000 compounds, 0.33% hits; purified proteasome/UCH37, Ub-AMC cleavage fluorescence;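 active = mean of two replicates above 20%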;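 note: 0% = compound-free wells with enzyme and 100% = wells lacking proteasome; stock transfer was 100 nL into about 20 µL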
Target sequence (Q9Y5K5 whole entry, looked up): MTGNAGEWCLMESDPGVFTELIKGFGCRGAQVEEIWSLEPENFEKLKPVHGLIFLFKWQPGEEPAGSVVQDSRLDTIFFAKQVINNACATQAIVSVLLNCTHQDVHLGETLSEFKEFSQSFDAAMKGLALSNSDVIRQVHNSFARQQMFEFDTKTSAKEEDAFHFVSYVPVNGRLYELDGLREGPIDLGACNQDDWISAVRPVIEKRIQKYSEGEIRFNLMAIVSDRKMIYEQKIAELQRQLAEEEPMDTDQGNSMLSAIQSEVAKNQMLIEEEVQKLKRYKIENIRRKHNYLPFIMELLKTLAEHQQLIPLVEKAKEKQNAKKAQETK
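assay system = human UCH37 enzyme supplied as purified proteasome complex | amount = proteasome at 0.15 nM in the dispensed enzyme solution | schedule = 30 min compound-proteasome preincubation then 25 min substrate reaction, room temperature | measured by = fluorescence, ex 355 nm, em 460 nm | benchmarks = no-proteasome wells (full inhibition) and compound-free wells (no inhibition)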
Starred values were filed as active, the others as inactive; i = inactive; ? = inconclusive; / = not tested or not shown; & = joins results of further samples; ! = a repeat was not active.

cpd	Molecule	UCH37 DUB inh	RanGTP-Impb inh	T cruzi inh	Bfl-1 A1 inh	Beta2AR agonist	Calb FLC	LANA-H2A inh	Beta apoptosis
1	C[C@]12c3[nH]c4ccccc4c3CCN1C(=O)C(CC(=O)NCCN1CCOCC1)C[C@@H]2C(=O)N1CCOCC1 (stereo partly specified)	1.2	/	/	0.3	3	/	-139	-2
2	CCc1ccc(-c2csc3ncn(CC(=O)N4CCOCC4)c(=O)c23)cc1	0.8	-2.7	-8	-0.9	-1	-3	0.7	-2
3	Cc1ccc[n+](CC(=O)c2ccc(Br)cc2)c1	3.9	1.2	5	0.6	-2	-9	1.4	-1
4	Cc1ccc(S(=O)(=O)N2CCOCC2)cc1NC(=O)COC(=O)Cn1c(C)csc1=O	5.3	1.5	0	0.1	6	-5	0.8	-1
5	CCOC(=O)c1cnc(SCC(=O)OCC(=O)N(CC)C2CCS(=O)(=O)C2)nc1N (stereo unspecified)	0.7	-0.9	-5	-0.8	3	-2	4.0	-1
6	COc1ccc(-c2nc(-c3ccc(NC(=O)c4ccc(Br)o4)cc3)no2)cc1OC	-0.9	-1.9	13	0.9	-6	-3	0.8	/
7	CCc1sc(NC(=O)CCC(=O)O)nc1-c1cc2ccccc2oc1=O	4.4	1.8	-6	0.1	4	-1	4.6	-7
8	Cc1c(C(=O)O)sc2nc(-c3cccs3)cc(C(F)(F)F)c12	i	2.6	17	4.8	1	2	3.7	0
9	CC1CC(C)CN(CC(=O)Nc2ccc(S(N)(=O)=O)cc2)C1 (stereo unspecified)	3.2	1.4	2	0.3	-1	-8	0.3	1
10	Cc1cccc(C)c1OCC(=O)N(Cc1cccs1)C1CCS(=O)(=O)C1 (stereo unspecified)	0.0	3.4	1	0.1	-3	3	-1.4	0
11	CC(C)(C)c1ccc(/C=C2/SC(N3CCCC3)=NC2=O)cc1	11	1.7	6	0.0	-5	16	-4.4	4
12	COc1ccc(/C=N\N2CCN(Cc3ccccc3Cl)CC2)cc1	/	-1.6	4	0.3	7	-8	2.3	-1
13	CN(C)S(=O)(=O)c1cccc(C(=O)C2=C3SC=C(c4ccccc4)N3CC2)c1	1.3	-0.4	-2	-2.0	-3	-4	-2.8	-11
14	O=C(CSc1nnnn1-c1ccc(F)cc1)c1ccc(O)c(O)c1	5.2	?	-88	1.9	-12	8	2.3	/
15	COCCSc1nnc(NS(=O)(=O)c2ccc(F)cc2)s1	2.0	2.0	-1	0.0	-1	-4	-3.6	-11
16	O=[N+]([O-])c1ccc(-c2c(-c3ccccc3)ncc3ccc(F)cc23)cc1	4.5	/	/	-2.4	2	/	-1.6	7
17	COc1ccc(/C=N/NC(=O)c2ccc(CN3c4cccc5cccc(c45)S3(=O)=O)cc2)cc1	/	5.6	-16	0.2	10	11	6.0	-6
18	CC(C)(O)C#Cc1ccccc1C(=O)NC(CC(N)=O)C(=O)O (stereo unspecified)	0.8	0.3	9	0.9	-2	-8	-4.4	-5
19	Cc1c(C(=O)N2CCCCC2)c(S(=O)(=O)NCCc2ccc(S(N)(=O)=O)cc2)c(C)n1C	4.9	2.3	1	0.2	-2	-8	-1.0	/
20	Cc1cnc(NC(=O)C2CC(=O)N(c3cccc(Cl)c3)C2)s1 (stereo unspecified)	5.1	-0.8	20	0.4	4	-4	0.1	13
21	Brc1ccccc1-c1nnc(COc2ncnc3c2cnn3-c2ccccc2)o1	0.2	-0.4	7	0.2	0	28	-0.5	-9
22	O=C(Nc1cc([N+](=O)[O-])ccc1Cl)c1cccnc1	1.2	-1.7	4	-0.3	0	1	-0.6	2
23	Cc1ccc(-c2cc(C(=O)NCc3ccccn3)c3ccccc3n2)cc1	-33	?	-3	0.0	9	0	-2.4	3
24	CC(C)c1ccc(Nc2ccc(C(=O)O)cc2[N+](=O)[O-])cc1	3.8	2.6	-6	0.0	10	-3	1.4	-5
25	COc1cccc(C(=O)N2CCN(c3ccccn3)CC2)c1	0.1	1.7	-11	0.5	-2	-9	-6.7	-2
26	O=c1c2c(nc3nc(SCc4ccccc4)[nH]n13)CCC2	2.3	1.1	1	1.2	1	-6	0.2	-1
27	CS(=O)(=O)N(CC(=O)Nc1cccc([N+](=O)[O-])c1)c1ccccc1F	2.3	-1.2	-4	-0.1	0	13	-5.5	0
28	Cc1csc(SCC(=O)Nc2c(C)n(C)n(-c3ccccc3)c2=O)n1	/	12	-5	-1.1	2	-17	-1.2	-1
29	C=CCNc1oc(COc2ccc(C)cc2)nc1C#N	3.6	?	-2	-0.5	-7	18	-1.7	-2
30	CN(C)S(=O)(=O)c1ccc(C(=O)Nc2ccc(OCC(=O)N3CCOCC3)cc2)cc1	1.2	-0.3	-8	-0.2	12	-13	0.2	-11
31	O=C(Nc1nc2c(Cl)cccc2s1)c1ccc(Br)o1	-6.5	?	-3	0.1	-1	54*	0.7	19
32	COCC1CCN(C(=O)c2cc(COc3ccc4ncccc4c3)on2)CC1	-1.0	1.2	17	-0.3	-9	-2	2.3	37
33	CC(C)NC(=O)Cn1nnc(-c2ccc(Cl)cc2)n1	0.1	-2.8	-13	-0.2	-9	-14	5.9	6
34	O=C(c1ccc(N2CCCCC2)c([N+](=O)[O-])c1)N1CCN(c2ccccn2)CC1	4.3	-0.2	2	?	-9	-7	1.4	-7
35	Cc1ccc2nc(N3CCOCC3)c(C=O)c(=O)n2c1	3.6	-2.3	-5	-0.3	-2	2	2.1	-1
36	O=C(Nc1cccc(F)c1)c1cccnc1	-0.9	-3.4	14	-0.7	-6	3	-2.7	1
37	CC(C)C(NS(=O)(=O)c1ccc(Br)s1)C(=O)O (stereo unspecified)	0.9	-5.4	-8	0.3	1	-2	/	-6
38	CCOc1ccc(N=C2NC(=O)C(CC(=O)Nc3ccc(OC)cc3)S2)cc1 (stereo unspecified)	4.2	-2.9	0	-0.2	9	5	-7.0	-6
39	CC(=O)c1ccc(NC(=O)CN2C(=O)CCC2=O)cc1	-0.7	0.2	-15	0.6	3	1	1.9	-7
40	C=CCNc1nc(S(=O)Cc2ccc(C)cc2)nc2c1CCCC2 (stereo unspecified)	3.8	2.8	-18	0.1	53*	25	-8.0	-4
41	C[C@@H]1COC(=O)[C@H](CC(=O)OC(C)(C)C)C/C=C\C[C@@H](CC(=O)N(CCO)Cc2ccccc2)C(=O)N1	1.3	/	/	-0.1	4	/	-0.6	-1
42	CC(C)CC(=O)NC(=S)Nc1cccc(NC(=O)c2ccccc2Cl)c1	1.9	-0.6	-11	-0.4	1	18	-1.9	-7
43	COc1cc(/C=C2\N=C(C)OC2=O)cc(OC)c1OC	5.0	-0.8	-21	0.4	5	15	1.6	/
44	O=C(CSc1nc(O)c(Cc2ccccc2)c(=O)[nH]1)Nc1nnc(SCc2ccccc2)s1	/	-2.8	-11	0.2	-6	19	-0.5	0
45	COc1ccc(NC(=S)NC(NC(=O)c2cccc3ccccc23)C(Cl)(Cl)Cl)c([N+](=O)[O-])c1 (stereo unspecified)	1.0	4.0	68*	0.2	4	-5	-4.8	7
46	COC(=O)Cc1c(C(=O)OC)nnn1-c1ccc(OC(F)(F)F)cc1	5.5	0.1	7	0.6	-1	?	2.1	-7
47	CCN(CCCNC(=O)CCC(=O)N1CCOc2ccccc21)Cc1ccccc1	1.7	1.3	12	0.5	6	-2	-4.0	-5
48	CN1C(=C2C(=O)OC(C)(C)OC2=O)Sc2ccccc21	7.5	3.7	23	-1.9	-15	1	-1.5	-5
49	Cc1nc(NC(=O)c2cc3c(s2)CCCCC3)sc1C(=O)N(C)C	5.1	?	1	-0.1	17	22	-0.9	-2
50	Cc1ccc(C(=O)NC(=C(Cl)Cl)S(=O)(=O)c2ccc(C)cc2)cc1	2.2	3.3	-2	0.5	2	-24	-0.1	-12

(cont.)
cpd	Molecule	UCH37 DUB inh	RanGTP-Impb inh	T cruzi inh	Bfl-1 A1 inh	Beta2AR agonist	Calb FLC	LANA-H2A inh	Beta apoptosis
51	COCCN(C(=O)CSc1n[nH]c(-c2ccccc2)n1)c1c(N)n(CC(C)C)c(=O)[nH]c1=O	1.1	2.0	-2	0.5	4	0	-5.4	-2
52	COc1c(Cl)cc(Cl)cc1C(=O)Nc1ccc(NC(=O)c2cccs2)cc1	-5.9	-1.9	58*	-0.6	8	1	-2.6	/
53	CCOc1ccc2nc(SCC(=O)N3c4ccccc4Sc4ccccc43)sc2c1	2.3	2.3	32	0.0	6	1	1.3	-1
54	COc1ccc(CCNC(=O)CCN2C(=O)c3ccccc3C2=O)cc1OC	-0.9	4.2	-3	0.2	/	10	1.1	-4
55	CCOC(=O)N1CCN(Cc2nc(-c3ccc(C)cc3)no2)CC1	4.1	0.2	0	1.1	-3	-2	-0.3	1
56	CCOCCCNC(=O)CN1CCN(c2ccc(F)cc2)CC1	3.2	3.9	-2	0.4	4	-1	3.2	-14
57	C=CCC1(O)C(=O)N2C(=C1C(=O)OCC)c1ccc3ccccc3c1CC2(C)C (stereo unspecified)	1.4	-1.5	1	2.3	3	44	-4.0	-12
58	O=C1NCC(COc2ccc(Cl)cc2)O1 (stereo unspecified)	6.4	-0.8	-10	0.2	1	-14	-12	-8
59	CSCCC(NC(=O)C1CCCC1)c1nnc2ccccn12 (stereo unspecified)	0.2	1.5	-16	-0.9	3	3	-3.2	/
60	O=C(CO/N=C/c1ccc(OC(F)F)cc1)N1CCc2ccccc21	/	3.9	-18	-0.4	2	-11	1.5	-1
61	CC(=O)N1CCc2ccc(NC(=O)c3c(-c4c(Cl)cccc4Cl)noc3C)cc21	2.3	5.2	0	1.0	-6	-1	0.2	2
62	CSc1ccc2c(c1)C(N1CCN(C)CC1)Cc1ccccc1S2 (stereo unspecified)	0.6	3.3&-1.1	15&26	0.2&0.5	61*!	55	-0.9&4.0	-4&10
63	Cc1nn(-c2ccccc2)c(C)c1/C=N/NC(=O)CSc1nc2ccccc2c(=O)n1-c1ccc(Br)cc1	/	-1.3	22	7.1*	0	2	-11	62
64	O=C(c1ccc(C(F)(F)F)cc1)C1CCCN(C(=O)CN2C(=O)CSC2=O)C1 (stereo unspecified)	4.7	1.2	-25	0.2	-4	?	-5.3	3
65	Cc1cc(C)cc(C(=O)Nc2cccc(NC(=O)c3ccco3)c2)c1	1.0	2.8	6	0.8	4	-20	-4.4	4
66	CCOC(=O)Cn1c(-c2ccccc2)ccc(C#N)c1=O	2.0	5.0	-8	0.1	3	9	3.1	2
67	O=C(CN1C(=O)NC2(CCCCCC2)C1=O)NC1CCCCCCC1	1.8	-0.8	-15	0.4	-8	-23	1.4	2
68	COc1cccc(CNC(=O)C2CCC(CNS(=O)(=O)c3cccc4cccnc34)CC2)c1 (stereo unspecified)	1.4	-5.0	10	?	0	-21	13	4
69	CCN(CC)CCNC1=CC(=O)OC12CCCCC2	2.6	1.2	19	0.4	-9	18	0.4	-8
